# Bioassay records: PubChem, ICCB-Longwood Screening Facility, Harvard Medical School
# AID504770 = E. coli YBA685 growth inhibition, screen for V. cholerae RctB inhibitors. E. coli YBA685 rctB-dependent plasmid, OD600 growth, 3 h; stronger effect = lower value. z-score (concentration not given with the values). actives 0.27% (n = 130,000);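 active = z-score under -2 on both plates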;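 also: wells of about 30 µL received 100 nL stock; score is relative to mean and SD of the test wells; the first replicate is given; strong numbers were not always called active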
# Ba CapD inh = blocks the Bacillus anthracis CapD enzyme; purified CapD enzyme, fluorescence intensity read-out; stronger effect = lower value; some hits fall short of the stated cut; z-score (no concentration beside the values); actives 0.23% (n = 140,000); AID 492967;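 active = z-score under -4 in either of two replicates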;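 also: stock transfer was 100 nL into about 40 µL; score is relative to mean and spread of the plate; one replicate is shown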
# Starred values were filed as active, the others as inactive; / = not tested or not shown. These rows are one share of the data; the hit share may differ from the screen's.
SMILES,AID504770,Ba CapD inh
COc1ccc(C(CNC(=O)c2ccc(OCc3c(C)noc3C)cc2)N2CCCC2)cc1 (stereo not drawn),0.7,/
CNC(=S)N/N=C/c1ccccc1Cl,/,-1.8
CCn1c(SCCn2c(=S)n(C)c3ccccc32)nc2ccccc21,-0.15,0.01
COc1ccc(-c2csc(Nc3ccccc3)n2)cc1OC,-0.1,/
CN1C/C(=C\c2ccc(N3CCOCC3)cc2)C(=O)/C(=C/c2ccc(N3CCOCC3)cc2)C1,-0.8,-0.81
CCOCCn1c2ccccc2c2nc3ccccc3nc21,/,3.6
CCN(CC(=O)Nc1cccc(F)c1)CC(=O)Nc1ccccc1OC,0.2,/
Cc1ccc(N=Cc2cc3ccccc3[nH]c2=O)cc1,1.7,-0.39
COc1cccc(N2CCN(c3c(C#N)c(C(F)(F)F)nn3C)CC2)c1,/,-0.39
Cc1oc2c(F)c(F)c(F)c(F)c2c1C#N,-0.7,0.045
O=C(CSC1CCCC1)c1ccccc1Cl,-1.2,0.53
CCCCN(C)C(=O)c1ccc(Sc2ccc(Cl)cc2)c(NC(C)=O)c1,-0.45,4.5
CCc1sc(C(=O)NN)cc1C,-1,/
O=C(CS(=O)(=O)Cc1c(F)cccc1Cl)Nc1ccc(F)c(Cl)c1,/,-0.82
NC(=O)CN1CCN(Cc2ccc3c(c2)OCO3)CC1,-0.75,/
OCCNCC(O)Cn1ccc2ccccc21 (stereo not drawn),-0.55,/
O=COCC1OC(OC=O)C(Nc2ccccc2)C(OC=O)C1OC=O (stereo not drawn),-0.05,0.22
CCOC1=NC(C(F)(F)F)(C(F)(F)F)N=C2Sc3ccccc3N12,-1.1,0.25
O=C(NCc1cccnc1)c1ccc(S(=O)(=O)N2CCCCC2)cc1,-0.6,/
COc1ccccc1-c1nc(SC)n[nH]1,-0.6,10
CC1(C)CC(=O)C(C(C2=C(O)CC(C)(C)CC2=O)c2cccc(OCc3ccccc3)c2)C(=O)C1 (stereo not drawn),/,-0.29
COc1ccc(-c2nnc3n2N=C(N)CS3)cc1OC,0.75,-0.2
O=C(OCc1cc(=O)n2ccsc2n1)C1CCCCC1,-0.35,16
O=C(O)CCC(=O)Nc1cccc(C(=O)N2CCCCC2)c1,0.3,/
CC1(O)N(CCN)C(=O)OC12CCCCC2 (stereo not drawn),/,-0.34
O=C(O)CNC(=O)C1CC1,1.7,/
CC(C)(C)C(/C=C/c1ccc(Cl)cc1Cl)n1nnnc1C(C)(C)N1CCOCC1 (stereo not drawn),0.5,-0.44
COc1ccc(OC)c(C2NC(=S)NC(C)=C2C(=O)Nc2ccc(Cl)cc2)c1 (stereo not drawn),/,-0.28
NS(=O)(=O)c1nn2cc(-c3ccccc3)nc2s1,3,0.14
CCc1nc2cccnc2n1-c1ccc(CC(=O)NC(C)CC)cc1 (stereo not drawn),-0.05,0.54
Cc1ccc(C2C3=C(CC(C)(C)CC3=O)Nc3onc(C)c32)cc1 (stereo not drawn),0.05,/
Cc1ccc2c(c1)C(COc1ccccc1)=NNC(c1ccc(Br)cc1)=N2,/,-0.48
CCOC(=O)N1CCN(C(=O)CSc2nc3c(cnn3-c3ccc(C)cc3)c(=O)[nH]2)CC1,0.8,0.23
O=C(O)C1CSC(c2ccncc2)=N1 (stereo not drawn),0.85,/
O=C(CSc1nc2ccccc2[nH]1)N1CCc2cc(F)ccc21,/,0.02
Cc1cc(F)ccc1NS(=O)(=O)c1cc2[nH]c(=O)c(=O)[nH]c2cc1C,-0.7,19
COc1ccc(NC(=O)CSc2ncccc2C(=O)Oc2ccccc2Cl)cc1OC,2.5,0.73
Cc1ccc2oc(=O)c3cnn(CC(=O)N4CCCCC4C)c3c2c1 (stereo not drawn),-0.2,0.72
CCOC(=O)c1c(C2CC2)csc1NC(=O)CSc1nnc(C(CC)N(C)C)o1 (stereo not drawn),-0.5,/
CC(C)C(=O)N1CCC(c2nc(-c3ccc(F)cc3)no2)CC1,1.4,/
O=S(=O)(Nc1ccc(N2CCCCC2)cc1)c1ccc(F)cc1,-0.75,-1.2
CCOc1nc(-c2ccccc2)ccc1-c1noc(-c2ccccc2F)n1,-0.45,0.83
COC(=O)C1=C(C)N=c2s/c(=C\c3ccc(OC(C)=O)cc3OC(C)=O)c(=O)n2C1c1cccs1 (stereo not drawn),/,0.24
Cc1ccc(-c2nc(CSCC(=O)NCCN3CCCC3)c(C)o2)cc1,2,-0.26
O=S1CCCCC1,1.5,-0.1
C=CCNC(=O)C1CC(c2ccc(OC)cc2)=NO1 (stereo not drawn),-0.25,-0.6
CN(C)C(=O)/C=C/c1ccc(Cl)cc1,0.6,/
CCOC(=O)C1=C(C)NC(=O)C1CC(=O)Nc1ccc(C(=O)OCC)cc1 (stereo not drawn),-0.9,0.74
O=C(Nc1cccc2nsnc12)c1cc(Cl)ccc1NS(=O)(=O)c1cccc2nsnc12,/,-0.12
CC(=O)Oc1cccc(OC(C)=O)c1OC(C)=O,0.1,/
O=C1c2ccccc2C(=O)N1CCCC(=O)N(Cc1nc(-c2ccccc2)no1)C1CCCCC1,1.4,-0.54
O=C(c1cccs1)N1CCC(c2nc(-c3cccs3)no2)CC1,/,0.16
FC(F)Oc1ccc(Cl)c2ccccc12,-0.35,/
CC1CC(C)CN(CCCNC(=O)c2cccc3c2SCCC3=O)C1 (stereo not drawn),-0.05,-0.47
CC1=C(C#N)C(c2cnc[nH]2)C2=C(CCCC2=O)N1 (stereo not drawn),-0.1,99
CC(NC(=O)OCCc1ccccc1Br)c1cccc2ccccc12 (stereo not drawn),/,0.04
CC(N)C1CC2CCC1C2 (stereo not drawn),0.4,/
CC(C)N(Cc1nnc(-c2ccc(Cl)cc2)o1)C(=O)/C=C/c1ccc(F)cc1,-0.6,/
COC(=O)c1ccc2c(=O)[nH]c(COC(=O)c3c(-c4ccccc4)noc3C)nc2c1,0.35,/
CCCCN(C)c1nc(CC)c2c(c1C#N)CC(C)(C)OC2,0.5,-0.13

# 2 records drawn at random from those above:
SMILES,AID504770,Ba CapD inh
CC(NC(=O)OCCc1ccccc1Br)c1cccc2ccccc12 (stereo not drawn),/,0.04
FC(F)Oc1ccc(Cl)c2ccccc12,-0.35,/

# Carrying on:
SMILES,AID504770,Ba CapD inh
C=CCNc1nc(C(=O)OCCCn2c(=O)[nH]c3ccccc32)cs1,1.3,/
O=C(CN(C1=NC2CS(=O)(=O)CC2S1)c1ccc(F)cc1)Nc1ccccc1C(F)(F)F (stereo not drawn),-0.9,-0.18
CN1C(=O)N(C)C(c2ccc3c(c2)OCO3)C2=C1CC(C)(C)CC2=O (stereo not drawn),/,0.15
O=C(COC(=O)c1ccc(OC(F)(F)F)cc1)NCc1ccccc1,-0.35,0.17
CC1CCCN(C(=O)c2ccc3c(c2)C(=O)N(CCC2=CCCCC2)C3=O)C1 (stereo not drawn),0.05,-0.66
COc1cccc(N/C(SCc2ccccc2F)=C(/C#N)C(=O)NCc2cccs2)c1,/,-0.4
CCOc1ccccc1CN(Cc1ccco1)S(=O)(=O)c1ccc(C)c([N+](=O)[O-])c1,/,-0.62
CCN1C(=O)NC(c2ccc(Cl)cc2)C(C(=O)OCCOc2ccccc2)=C1C (stereo not drawn),/,-0.02
O=S(=O)(c1cccs1)N1CCCCCC1,/,-0.41
COC(Cc1nc2ccccc2s1)C(=O)O (stereo not drawn),-0.2,-0.12
COc1ccc(C2Nc3ccccc3NC3=C2C(=O)CC(c2ccccc2)C3)cc1Br (stereo not drawn),/,-0.58
CC(=O)N[C@@H](Cc1c[nH]c2ccccc12)C(=O)NCc1ccccc1,0.7,/
COc1ccccc1N1CCN(C(=O)CSc2nc3ccccc3c(=O)n2CCC(=O)NC2CCCCC2)CC1,/,0.98
CCc1ccc2c(CC(=O)N(C)Cc3ccccc3OC)coc2c1,-0.45,/
CC(C)N(C(=O)CNCc1cccs1)C(C)C,0,/
COc1ccc(S(=O)(=O)Nc2cc(C(=O)N3CCCCC3)ccc2N2CC3CC(C2)c2cccc(=O)n2C3)cc1 (stereo not drawn),/,0.23
N#CC1=C(SCC(=O)Nc2ccccc2F)NC2=C(C(=O)CCC2)C1c1ccco1 (stereo not drawn),-1.5,2.1
CCOC(=O)N1CCN(C(=O)C(C)Oc2ccc(Br)cc2)CC1 (stereo not drawn),-1.1,0.015
CC(C)C(=O)Nc1ccc(-c2nc3cc(Cl)ccc3o2)cc1,-0.75,68
CCn1c2ccccc2c2cc(CN3CCC(N4CCN(CCO)CC4)CC3)ccc21,-0.55,4.2
O=C1C=CC(=NOC(=O)c2ccc(Cl)cc2)C=C1,1.1,-0.17
COc1cc(Cl)c(C(F)(F)F)cc1NC(C)=O,-0.6,0.15
CCS(=O)(=O)c1ccc(O)c(NC(=O)COc2ccc(OC)cc2)c1,-0.9,0.71
CCN(c1ccccc1)S(=O)(=O)c1cc(C(=O)OC)n(C)c1,0.65,-0.52
Cc1cccc(NC(=O)C2c3ccccc3C(=O)N3CCc4ccccc4C23)n1 (stereo not drawn),-0.1,-0.06
O=C(NCc1ccccc1)C1=NS(=O)(=O)c2ccccc2N1,0.25,-0.97
O=c1nc2sc3ccccc3n2c(=O)n1-c1ccccc1,1.6,-0.4
Clc1ncccc1-c1nc2ccccc2n1Cc1ccccc1,0.8,4.1
O=C(Nc1cccnc1)c1[nH]nc2c1CCc1ccccc1-2,-0.4,1.3
O=c1cc(CO)occ1O,/,0.11
CC(O)CN(CC(C)O)c1ncnc2c1sc1nc3c(cc12)COC(C)(C)C3 (stereo not drawn),0.15,/
Cc1cc(NC2CCCCC2)nc(NCc2ccccc2)n1,1.5,0.04
CN(C)S(=O)(=O)c1ccc(NC(=O)Cn2ccsc2=N)cc1,0.2,/
Cc1ccc(CN2CCC(CNC(=O)Nc3ccc4c(c3)OCCO4)C2)cc1 (stereo not drawn),0.7,-0.085
COc1ccc(C2CCCN2CC(O)COc2ccccc2C(C)C)cc1 (stereo not drawn),-0.25,/
O=C1NCC(O)=C1C=NC12CC3CC(CC(C3)C1)C2,-0.6,-0.065
Cc1cc(C)cc(CC(C(=O)O)C(C)C(=O)O)c1 (stereo not drawn),-0.4,-0.97
CCOc1nc(NC(=O)NS(=O)(=O)c2cccc(Cl)c2)nc(-c2ccccc2)n1,-0.55,0.6
O=c1[nH]c(CSc2nnc(-c3ccccc3)n2Cc2ccco2)nc2scc(-c3ccccc3)c12,-0.9,/
Cn1c(=O)c2c(nc(Oc3ccccc3)n2C)n(C)c1=O,0.5,0.05
COC(=O)c1nnn(-c2ccccc2)c1C(=O)OC,1.8,-0.17
Cc1ccc(C(=O)c2ccccc2C(=O)OCC(=O)N2CCCC2)cc1,0.35,/
CC1CCN(C(=O)COC(=O)/C=C/c2cccs2)CC1,-0.55,-1.1
COc1ccc(NC(=O)c2ccc3nc(C)c(C)nc3c2)cc1,-0.5,-1.1
FC(F)(F)c1n[nH]c2c1CCCC2,/,-0.24
Cc1sc2ncnc(SCC(=O)Nc3sc(-c4ccccc4)cc3C(N)=O)c2c1C,/,-0.4
CCOC(=O)C(O)(c1ccc(N)c(C)c1)C(F)(F)F (stereo not drawn),/,-0.16
COc1cccc(NC(=O)CSc2ncc3c(n2)-c2ccccc2N(C)S3(=O)=O)c1,0.05,11

# Arranged by SMILES length (largest number first): 16 of the compounds above.
SMILES,AID504770,Ba CapD inh
O=c1[nH]c(CSc2nnc(-c3ccccc3)n2Cc2ccco2)nc2scc(-c3ccccc3)c12,-0.9,/
COc1cccc(NC(=O)CSc2ncc3c(n2)-c2ccccc2N(C)S3(=O)=O)c1,0.05,11
Cc1sc2ncnc(SCC(=O)Nc3sc(-c4ccccc4)cc3C(N)=O)c2c1C,/,-0.4
CC(O)CN(CC(C)O)c1ncnc2c1sc1nc3c(cc12)COC(C)(C)C3 (stereo not drawn),0.15,/
Cc1ccc(CN2CCC(CNC(=O)Nc3ccc4c(c3)OCCO4)C2)cc1 (stereo not drawn),0.7,-0.085
Cc1ccc(C(=O)c2ccccc2C(=O)OCC(=O)N2CCCC2)cc1,0.35,/
CN(C)S(=O)(=O)c1ccc(NC(=O)Cn2ccsc2=N)cc1,0.2,/
COc1ccc(C2CCCN2CC(O)COc2ccccc2C(C)C)cc1 (stereo not drawn),-0.25,/
COc1ccc(NC(=O)c2ccc3nc(C)c(C)nc3c2)cc1,-0.5,-1.1
Cn1c(=O)c2c(nc(Oc3ccccc3)n2C)n(C)c1=O,0.5,0.05
O=C1NCC(O)=C1C=NC12CC3CC(CC(C3)C1)C2,-0.6,-0.065
CC1CCN(C(=O)COC(=O)/C=C/c2cccs2)CC1,-0.55,-1.1
Cc1cc(C)cc(CC(C(=O)O)C(C)C(=O)O)c1 (stereo not drawn),-0.4,-0.97
Cc1cc(NC2CCCCC2)nc(NCc2ccccc2)n1,1.5,0.04
FC(F)(F)c1n[nH]c2c1CCCC2,/,-0.24
O=c1cc(CO)occ1O,/,0.11

# Continued.
SMILES,AID504770,Ba CapD inh
CCOC(=O)c1c(CN2CCCC2)n(C)c2cc(Br)c(OC)cc12,-0.95,0.51
COc1ccc(NC(=O)c2ccoc2COc2ccc(C)cc2)cc1,0.4,/
O=C(c1cccc(NC2=NC3CS(=O)(=O)CC3S2)c1)N1CCN(C(=O)c2ccco2)CC1 (stereo not drawn),-0.85,-0.03
Cc1[nH]c2cccc(C(=O)O)c2c1C,1.8,/
Cc1ccc(C2(C)NC(=O)N(CC(=O)C(C)(C)C)C2=O)cc1 (stereo not drawn),2.2,/
CCc1nn(C)c(N)c1C,-0.3,/
CCS(=O)(=O)Nc1ccc(N2CCCCC2)cc1,-0.05,/
COc1ccc(NC(=O)c2ccc(C)c(I)c2)cc1OC,-0.3,6.8
O=C(NCC1CCCO1)c1ccc(N2CC3CC(C2)c2cccc(=O)n2C3)c(NS(=O)(=O)c2ccc(F)cc2)c1 (stereo not drawn),-0.35,-0.44
CC1CCCCN1S(=O)(=O)c1coc(C(N)=O)c1 (stereo not drawn),2,-0.22
CN1c2ccccc2C(C)(C)C12C=Cc1ccccc1O2 (stereo not drawn),/,0.005
CN(C(=O)COC(=O)c1cccnc1Cl)C1CCCCC1,0.25,-0.21
CN(C)CCN1C(=O)C2C3c4ccccc4C(c4ccccc43)C2C1=O (stereo not drawn),-0.4,-0.21
